# FGF22 binding: shifts melting point of recombinant human FGF22; hit rate 1.5% among 340,000; Q9HCT0; recombinant FGF22 thermal shift, SYPRO orange fluorescence; percent of sucrose octasulfate shift, DMSO zero; AID 651658; calls only at 9.99 µM;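 active = melting point raised past a set limit in the mean and every replicate; three in four hits are not shown here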
# Target sequence (Q9HCT0 whole entry, looked up): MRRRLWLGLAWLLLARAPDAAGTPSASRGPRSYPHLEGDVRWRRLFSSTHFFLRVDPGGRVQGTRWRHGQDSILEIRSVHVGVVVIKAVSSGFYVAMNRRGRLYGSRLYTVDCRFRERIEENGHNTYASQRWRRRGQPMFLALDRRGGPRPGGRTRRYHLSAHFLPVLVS
# UCH37 inh: blocks the human deubiquitinase UCH37; hit rate 0.33% among 330,000; AID 588478; inhibition, % (test concentration not listed); purified proteasome/UCH37, Ub-AMC cleavage fluorescence;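 active = mean of two replicates above 20%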;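 also: 0% = compound-free wells with enzyme and 100% = wells lacking proteasome; stock transfer was 100 nL into about 20 µL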
#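 Material: human UCH37 enzyme supplied as purified proteasome complex / Amount: 0.15 nM proteasome as dispensed / Buffer or medium: pH 7.4 Tris-HCl (50 mM) with ovalbumin, ATP-MgCl2, DTT / Times: preincubation 30 min, reaction 25 min, room temperature / Technique: AMC fluorescence from Ub-AMC cleavage, excitation 355 nm, emission 460 nm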
# Beta2AR agonist: activates human beta-2 adrenergic receptor causing internalization; response, % (concentration not given with the values); hit rate 0.43% among 340,000; Am2.2-beta2AR cells, FAP receptor internalization, flow cytometry; reference of the scale not given here;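 active = response above a set limit, near 3 SD of response in nonfluorescent compounds, cut at about 42% in these data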;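 also: stock transfer was 100 nL into about 11 µL; a reference agonist was the positive control; negative values mostly stem from fluorescent compounds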
# rRNA inh HTS: inhibitors of bacterial rRNA selective over humanized ribosomes; E. coli WT GFP vs humanized-ribosome RFP mutants, fluorescence, 24 h; active compounds read low; DMSO median 0, no signal -100; AID 720706; GFP signal change (wild-type ribosome), % (concentration not given with the values); hit rate 1.6% among 350,000;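 active = significant combined selectivity score with lowered wild-type GFP, culture density cut under 30%, mutant RFP and density less affected; inactive = any of these conditions unmet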; also: one replicate is shown; some compounds called inactive have numbers as strong as hits
# HNF4A DNA FP: change in binding of human HNF4 alpha to DNA; P41235; HNF4a-FITC DNA binding, fluorescence polarization, 1 h; activity change, % at 10 µM; hit rate 0.3% among 360,000; AID 1224865; in the data active = activity change above about 30%, passing the limit was not always enough;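 also: controls were the assay level and a saturating level of protein; the project sought stronger binding though the title names inhibitors; some compounds called inactive have numbers as strong as hits; positive values seem to mean higher polarization but the record does not say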
# Target sequence (P41235 whole entry, looked up): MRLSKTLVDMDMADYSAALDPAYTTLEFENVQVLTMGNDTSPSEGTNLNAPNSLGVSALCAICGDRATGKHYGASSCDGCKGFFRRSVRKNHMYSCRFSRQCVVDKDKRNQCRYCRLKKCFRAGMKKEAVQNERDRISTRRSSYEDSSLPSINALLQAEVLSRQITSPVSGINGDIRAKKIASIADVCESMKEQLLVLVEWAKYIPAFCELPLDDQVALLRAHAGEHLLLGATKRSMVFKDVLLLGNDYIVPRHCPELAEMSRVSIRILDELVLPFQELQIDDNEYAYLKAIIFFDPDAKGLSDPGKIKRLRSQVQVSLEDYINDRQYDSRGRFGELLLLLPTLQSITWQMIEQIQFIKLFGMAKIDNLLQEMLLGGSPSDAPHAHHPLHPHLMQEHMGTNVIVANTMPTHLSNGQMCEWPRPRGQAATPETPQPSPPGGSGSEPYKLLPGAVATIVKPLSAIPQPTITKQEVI
# ALR H2O2 inh: human ALR oxidase inhibition via reduced H2O2; inhibition, % (no concentration beside the values); purified ALR, DTT oxidation, H2O2 HRP-luminol luminescence; hit rate 3.8% among 290,000; P55789;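 active = mean and each replicate at 75% or more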;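 also: stock transfer was 7.5 nL into about 7.5 µL; 0% = neutral wells and 100% = wells with inactivated enzyme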
# Target sequence (P55789 whole entry, looked up): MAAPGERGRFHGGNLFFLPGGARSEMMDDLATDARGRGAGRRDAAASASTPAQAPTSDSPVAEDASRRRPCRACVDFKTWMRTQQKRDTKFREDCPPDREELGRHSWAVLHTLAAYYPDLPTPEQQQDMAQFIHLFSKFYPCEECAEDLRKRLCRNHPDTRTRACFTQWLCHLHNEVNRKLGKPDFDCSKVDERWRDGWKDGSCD
# E coli growth: E. coli growth inhibition; hit rate 0.21% among 330,000; Escherichia coli growth, OD600, 23 h; active compounds read low; OD600 absorbance (no concentration beside the values);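 active = OD600 absorbance below the run mean of sample wells minus 3.6 SD, in any replicate, cut at about 0.56 in these data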;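 also: stock transfer was 300 nL into about 60 µL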
# rRNA inh HTS OD600: second read-out of rRNA inh HTS, no call of its own (marks repeat the call); OD600 change, %; measured here: OD600 growth;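 optical density of the mix in the first replicate; 0 = DMSO median and -100 = no signal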
# rRNA inh HTS RFP: further read-out of rRNA inh HTS, marked with its call; RFP signal change, %; measured here: RFP humanized mutant strains;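 first replicate; 0 = DMSO median and -100 = no signal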
# Numbers without * were called inactive; i = inactive; x = no result given. This is a subset. The share of hits here may be higher or lower than overall.
molecule	FGF22 binding	UCH37 inh	Beta2AR agonist	rRNA inh HTS	rRNA inh HTS OD600	rRNA inh HTS RFP	HNF4A DNA FP	ALR H2O2 inh	E coli growth
COc1cccc(C(=O)Nc2ccc(-c3nnc(-c4ccco4)o3)cc2)c1	x	-3.0	10	x	x	x	-1.7	-4	x
CN=c1c([N+](=O)[O-])nn(-c2ccc3c(c2)OCCO3)n1O	i	3.2	-16	3	-6	8.4	1.5	4	0.54
COC(=O)Cc1c(O)ccn(Cc2ccccc2OC)c1=O	x	2.8	1	x	x	x	2.4	-2	0.8
COc1ccc(C2C(C#N)=C(N)Oc3n[nH]c(C)c32)cc1Cn1nc(C)c([N+](=O)[O-])c1C (stereo unspecified)	x	3.1	15	x	x	x	0.8	6	0.74
CN(C)S(=O)(=O)c1cccc(NC(=O)Cc2ccc(-c3ccccc3)cc2)c1	i	0.8	-12	-5	2	6.8	4.8	0	0.71
Cc1cccc(CNc2ncnc3ccc(-c4ccc5c(c4)OCCO5)cc23)c1	i	-1.2	7	-21	-24	-11	-0.5	-4	0.7
CCCc1ccc(-c2cc(C(=O)NN3CCOCC3)c3ccccc3n2)cc1	x	-21	-6	x	x	x	-0.4	-14	0.74
COc1ccccc1CNS(=O)(=O)c1ccc(-c2cc(C)no2)cc1	i	1.1	5	-13	-13	-3.8	-4.4	-4	0.69
NC(=O)C1(N2CCCCC2)CCN(C(=S)Nc2ccc(S(N)(=O)=O)cc2)CC1	i	-3.4	0	30	17	4.5	1.1	-31	0.66
CC(=O)COC(=O)CCc1nc2ccccc2[nH]c1=O	i	-38	4	9	3	0.4	-2.2	-1	0.66
COc1nccnc1NS(=O)(=O)c1ccc(NC(=S)NC(=O)c2cccc(F)c2)cc1	x	2.1	0	x	x	x	1.7	91*	0.72
CN=C1SC(CC(=O)Nc2ccc(N3CCOCC3)cc2)C(=O)N1C (stereo unspecified)	x	0.5	-9	x	x	x	4.2	10	0.66
Cc1ccc(C(=O)NN(C)c2nc3ccccc3nc2C(F)(F)F)cc1	x	-2.4	-1	x	x	x	1.2	-4	0.81
CCn1cc(C(=O)N[C@H](C(=O)NCCCN2CCOCC2)C(C)C)c(=O)c2cc3c(cc21)OCO3	i	-6.0	-3	2	5	-1.4	4.9	0	0.63
CCOc1ccccc1NC(=O)N1CCCC1C(=O)Nc1ccc(NC(C)=O)cc1 (stereo unspecified)	x	3.7	-6	x	x	x	0.5	0	0.76
COc1ccc(CC(=O)O/N=C(\N)Cc2ccc(OC)cc2)cc1	x	3.9	-1	x	x	x	0.2	x	0.71
CCOc1ccc(CCN2C(=S)N([C@@H](CC(C)C)CN3CCCC3CN3C(=S)NC[C@@H]3Cc3ccccc3)C[C@@H]2CC(C)C)cc1 (stereo partly specified)	i	x	x	7	16	18	8.2	x	x
COC(=O)c1ccc(COc2cc([N+](=O)[O-])cc3cccnc23)o1	i	3.8	5	14	-6	2.7	-1.7	-20	0.64
COC(=O)CN1C(=O)COc2ccc(S(=O)(=O)NCc3ccc(F)cc3)cc21	i	1.6	-5	-10	1	-5.0	3.7	-3	0.63
O=C(NCc1cccnc1)c1cnc2sccn2c1=O	i	-37	0	11	16	2.1	0.5	x	0.69
O/N=C/c1ccnc(SCc2ccccc2)n1	i	x	3	-16*	6.9*	-0.9*	-0.6	54	x
CCN(CC)C(=O)C(=O)c1cn(CCOc2ccccc2)c2ccccc12	i	4.9	4	-28	-23	0.6	-1.0	2	0.72
CCOC(=O)N1CCc2[nH]c3ccc(C)cc3c2C1	i	1.7	3	x	x	x	-23	-12	0.69
COc1cccc(CN2CCNC(=O)C2CC(=O)N(C)C2CCCCC2)c1OC (stereo unspecified)	i	-0.3	-1	1	1	0.9	1.6	x	0.68
Cc1ccc(S(=O)(=O)N2CCCCC2)cc1NC(=O)CN1C(=O)CN(C)C1=O	i	2.3	1	9	7	2.4	-2.3	2	0.69
O=C(NC(=S)Nc1ccc(S(=O)(=O)N2CCCC2)cc1)C1CCC1	x	0.5	-3	x	x	x	1.1	7	0.65
CCN(CC)CCNCc1ccc(Br)cc1OCC(=O)NCc1ccccc1	i	2.3	14	13	-2	-5.4	-1.3	9	0.64
O=C(O)CC(CC(=O)Nc1ccc(N2CCOCC2)cc1)c1ccccc1 (stereo unspecified)	i	1.5	-1	4	9	-2.1	-1.0	x	0.66
O=C(NCC(=O)N1CCCCCCC1)c1ccc(Cl)cc1	i	0.2	-6	x	x	x	5.7	-6	0.66
COc1cccc(OC)c1OCCCCCCN1CCN(C)CC1	i	0.0	1	6	1	1.4	2.3	0	0.65
CCc1ccc(/C=C2/Sc3ccccc3N(CC(=O)NCC3CCCO3)C2=O)cc1 (stereo unspecified)	i	-1.1	4	-5	-10	-1.0	0.9	-7	0.68
CC1Oc2ccccc2OC1C(=O)Nc1nccs1 (stereo unspecified)	i	4.7	-5	4	11	-0.7	4.0	-7	0.69
Cc1cc(C(=O)OC(C)C(=O)Nc2nc(-c3ccccc3)cs2)c(C)o1 (stereo unspecified)	i	2.3	6	-16	-11	-1.8	-3.6	-2	0.69
Cc1cccc(NC(=O)c2cnn(-c3ccc(F)cc3)c2C2CCNCC2)c1C	x	2.8	2	21	14	3.7	-1.8	-2	0.69
COc1ccccc1-n1c(O)c(C=NCc2ccccn2)c2ccccc2c1=O	i	6.1	-12	2	6	0.7	0.2	-6	0.66
N#C/C(=C(/O)c1ccc(Br)s1)c1nc2ccccc2[nH]1	i	-99	-27	1	12	-5.3	9.1	x	0.71
O=S(=O)(NC1=NCCC1)c1ccc(F)cc1F	i	0.4	0	12	10	2.9	2.5	1	0.69
O=c1[nH]c(N2CCN(Cc3ccc4c(c3)OCO4)CC2)nc2c1CCCC2	i	0.7	9	6	5	0.2	-7.9	2	0.63
N#Cc1cc(Nc2c(N)nc[nH]c2=O)c([N+](=O)[O-])cc1C#N	i	2.6	-8	13	7	-7.8	-1.2	-26	0.66
CCn1c(SCC(=O)NCCc2ccc(OC)c(OC)c2)nc2c([nH]c3ccccc32)c1=O	i	x	x	7	20	0.1	-1.8	x	x
CCN1C(=NCCc2ccccn2)N[C@@H](c2cccc(F)c2)C(C(=O)OC)=C1C	i	5.9	-8	7	6	1.2	-0.6	0	x
Cc1ccc(C)c(-n2c(SCC(=O)O)nc3sc4c(c3c2=O)CCCC4)c1	i	6.8	-1	-11	-18	-0.5	-2.4	5	0.69
Cc1ccc(/C=N/NC(=O)c2nnn(-c3nonc3N)c2CN(C)C2CCCCC2)cc1	i	x	-4	7	6	-0.4	-1.9	-2	x
c1ccc2c(c1)nnn2Cc1nnc2sc(-c3ccc4c(c3)OCCO4)nn12	x	-20	-11	x	x	x	2.7	-5	0.69
COc1ccc2nc(-c3ccc(F)cc3)sc2c1	i	-2.0	1	-1	0	-6.7	1.1	-6	0.68
CCOC(=O)c1cn2c(C)cccc2n1	i	-1.7	-1	1	0	-2.3	-0.8	5	0.64
COC(=O)c1cc(OC)ccc1-c1ccc(OC)cc1	i	-7.2	-1	-33*	-15*	-6.1*	2.3	-3	0.65
CC(C)C[C@H]1CN([C@@H](Cc2ccc(O)cc2)CN2CCC[C@@H]2CN2C(=O)C(=O)NC[C@@H]2Cc2ccccc2)C(=O)C(=O)N1CC1CCCCCC1	i	x	5	-18	-26	20	0.9	x	x

# 2 records drawn at random from the list so far:
molecule	FGF22 binding	UCH37 inh	Beta2AR agonist	rRNA inh HTS	rRNA inh HTS OD600	rRNA inh HTS RFP	HNF4A DNA FP	ALR H2O2 inh	E coli growth
Cc1cccc(CNc2ncnc3ccc(-c4ccc5c(c4)OCCO5)cc23)c1	i	-1.2	7	-21	-24	-11	-0.5	-4	0.7
c1ccc2c(c1)nnn2Cc1nnc2sc(-c3ccc4c(c3)OCCO4)nn12	x	-20	-11	x	x	x	2.7	-5	0.69

# Some of the entries so far, with values under each structure.
# Value order – FGF22 binding | UCH37 inh | Beta2AR agonist | rRNA inh HTS | rRNA inh HTS OD600 | rRNA inh HTS RFP | HNF4A DNA FP | ALR H2O2 inh | E coli growth
- N#C/C(=C(/O)c1ccc(Br)s1)c1nc2ccccc2[nH]1
→ i | -99 | -27 | 1 | 12 | -5.3 | 9.1 | x | 0.71
- COC(=O)CN1C(=O)COc2ccc(S(=O)(=O)NCc3ccc(F)cc3)cc21
→ i | 1.6 | -5 | -10 | 1 | -5.0 | 3.7 | -3 | 0.63

# Additional compounds follow:
molecule	FGF22 binding	UCH37 inh	Beta2AR agonist	rRNA inh HTS	rRNA inh HTS OD600	rRNA inh HTS RFP	HNF4A DNA FP	ALR H2O2 inh	E coli growth
COCc1nnc(NC(=O)c2ccc3c(c2)OCO3)s1	i	1.9	-7	5	7	-3.0	1.0	-4	0.65
CCc1cccc(CC)c1NC(=O)COC(=O)C1(c2ccc(Cl)cc2)CCCC1	x	0.8	1	x	x	x	0.7	x	0.73
CSCCC(N=C(NS(=O)(=O)c1ccc(C)cc1)c1ccccc1)C(=O)O (stereo unspecified)	i	2.6	-5	5	3	-8.2	0.4	-9	0.71
Cc1ccc2c(CN3C(=O)NC(C)(c4ccc5c(c4)OCO5)C3=O)cc(=O)oc2c1 (stereo unspecified)	x	3.3	-5	x	x	x	1.4	-3	0.66
NC(=O)CC(NC(=O)Cc1cccc2ccccc12)c1ccc(NCc2cc(F)ccc2F)c([N+](=O)[O-])c1 (stereo unspecified)	i	-2.6	6	1	12	-8.8	6.5	-2	0.7
NC(=O)c1c(NC(=O)c2ccccc2)sc2c1CCc1ccccc1-2	x	-121	-2	x	x	x	-5.5	-8	0.63
CC(=O)N(C)c1ccc(NCc2cc(=O)oc3cc(C)c(O)cc23)cc1	i	3.5	8	-23	-20	-4.4	-2.9	66	0.67
O=C(N/N=C/c1cccc(C(F)(F)F)c1)c1ccc(O)cc1	i	x	0	-5	-4	-1.9	2.6	-6	x
N#CC1=C(N)N(c2ccc(Br)cc2)C2=C(C(=O)CCC2)C1c1cccnc1 (stereo unspecified)	x	-16	-2	x	x	x	0.6	47	0.71
O=C(Cc1ccccc1)N/N=C/c1ccc[nH]1	i	x	4	12	5	2.1	3.6	32	x
CCCCC(=O)Nc1cccc(-c2ccc3nncn3n2)c1	i	2.5	-1	1	4	-2.6	-0.3	2	0.7
O=C(O)[C@H]1Cc2ccccc2CN1S(=O)(=O)c1ccc(F)cc1	i	6.0	-1	5	-2	-3.1	-0.2	x	0.71
CCOC(=O)N1CCN(S(=O)(=O)c2ccc(C(=O)N(CCN(C)C)c3nc4c(C)cccc4s3)cc2)CC1	i	5.1	-7	5	2	0.3	-2.5	-4	0.68
CCC(=O)c1ccc(OCC(O)Cn2nc(C)cc2C)cc1 (stereo unspecified)	i	5.1	-3	-4	-14	-0.3	-3.7	-13	0.7
O=C(N/N=C/c1ccc([N+](=O)[O-])o1)c1cn(-c2ccccc2)nc1-c1ccc(Cl)cc1	i	x	12	-2	2	3.7	4.8	x	x
N#Cc1ccc(COC(=O)CN2C(=O)NC3(CCCC3)C2=O)cc1	i	0.5	-2	7	9	2.0	-0.1	x	0.67
O=C1CC(c2ccncc2)c2cc3c(cc2N1)OCO3 (stereo unspecified)	x	2.5	5	x	x	x	2.1	2	0.81
O=C(COC(=O)CNC(=O)c1ccc(Br)o1)Nc1ccccc1OC(F)F	i	0.8	0	5	-2	0.8	-1.8	-3	0.64

# Compound activity deposited in PubChem BioAssay by several laboratories.
